Source: PubChem (several laboratories)
LANA-H2B inh: blocks KSHV LANA binding to histone H2A/H2B | cell-free LANA-H2A/H2B peptide, fluorescence polarization | Q9QR71 | AID 2629 | hit rate 0.6% among 320,000 | inhibition, % (no concentration beside the values); in the data active = inhibition mostly above about 10%, no sharp cut-off; inactive = mostly below about 6.7%;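 note: stock transfer was 7.5 nL into about 10 µL; 0% = median of vehicle wells and 100% = median of positive control wells; one replicate is shown; the record names a cut of 25% in any replicate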
Beta2AR agonist: activates human beta-2 adrenergic receptor causing internalization. response, % (no concentration beside the values). AID 504454. P07550. hit rate 0.43% among 340,000. Am2.2-beta2AR cells, FAP receptor internalization, flow cytometry; reference of the scale not given here;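 active = response above a set limit, near 3 SD of response in nonfluorescent compounds, cut at about 42% in these data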;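 note: stock transfer was 100 nL into about 11 µL; a reference agonist was the positive control; negative values mostly stem from fluorescent compounds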
Target sequence (P07550 whole entry, looked up): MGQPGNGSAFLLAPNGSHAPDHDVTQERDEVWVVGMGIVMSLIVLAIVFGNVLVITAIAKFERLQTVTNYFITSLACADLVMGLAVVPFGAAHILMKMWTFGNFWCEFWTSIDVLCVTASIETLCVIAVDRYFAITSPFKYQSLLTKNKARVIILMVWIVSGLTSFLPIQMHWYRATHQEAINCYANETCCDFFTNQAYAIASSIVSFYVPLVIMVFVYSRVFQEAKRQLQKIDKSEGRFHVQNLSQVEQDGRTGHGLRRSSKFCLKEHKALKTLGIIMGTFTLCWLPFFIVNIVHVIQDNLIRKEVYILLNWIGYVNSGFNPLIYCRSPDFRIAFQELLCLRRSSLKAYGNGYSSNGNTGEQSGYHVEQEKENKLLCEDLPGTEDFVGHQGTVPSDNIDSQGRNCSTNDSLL
T cruzi repl: blocks replication of Trypanosoma cruzi; T. cruzi beta-gal in NIH3T3, luminescence, 90 h; inhibition, % (test concentration not listed); hit rate 1.4% among 300,000;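 active = mean inhibition across valid replicates above about 55%, limit read from the data; inconclusive = mean below that limit but half or more replicates reach it; inactive = mean below it, under half of replicates reach it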;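 note: signal also drops with host cell toxicity which is not excluded here; 0% = plate median of DMSO wells and 100% = zero luminescence signal; higher percent means less beta-gal luminescence so fewer parasites; stock transfer was 50 nL into about 50 µL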
Calb FLC: C. albicans growth modulation with fluconazole | hit rate 0.57% among 300,000 | growth inhibition, % (no concentration beside the values) | C. albicans CaCi-2 (fluconazole-resistant clinical isolate) + fluconazole, Alamar Blue growth, 48 h;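 active = most replicates above 75%; inconclusive = exactly half above 75%; inactive = most below 75%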;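 note: all wells also contain fluconazole at 8 µg/ml as a sub-toxic cotreatment; 0% = median of DMSO wells and 100% = median of geldanamycin control wells; wells of about 8 µL received 7.5 nL stock; the first replicate is given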
Beta cell apopt: beta cell apoptosis inhibition | INS-1E cytokine-induced death, ATP luminescence, 48 h; percent of positive-control rescue, neutral wells zero | protection from apoptosis, % (no concentration beside the values) | hit rate 0.8% among 300,000 | AID 435005;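 active = all replicates at 75% or more, or half of them and the mean; inconclusive = half reach 75% but not the mean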;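 note: 0% = cytokine-treated negative control wells and 100% = positive control rescue; higher means more ATP so stronger rescue from cytokine killing; wells of about 40 µL received 100 nL stock; the first replicate is given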
RanGTP-Imp inh: inhibitors of RanGTP-importin-beta interaction, primary screen, biochemical, FRET, CFP-Ran, YFP-importin-beta, homogeneous | AID 2216 | hit rate 1.1% among 300,000 | inhibition, % (test concentration not listed) | cell-free CFP-Ran/YFP-importin-beta FRET ratio;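 active = most replicates above 15%; inconclusive = exactly half above 15%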;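 note: 0% = DMSO wells and 100% = Ran loaded with GDP instead of GTP; wells of about 40 µL received 100 nL stock; the first replicate is given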
UCH37 DUB inh: human UCH37 deubiquitinating enzyme inhibition; AID 588478; Q9Y5K5; hit rate 0.33% among 330,000; inhibition, % (no concentration beside the values); purified proteasome/UCH37, Ub-AMC cleavage fluorescence;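 active = mean of two replicates above 20%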;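 note: 0% = compound-free wells with enzyme and 100% = wells lacking proteasome; stock transfer was 100 nL into about 20 µL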
Target sequence (Q9Y5K5 whole entry, looked up): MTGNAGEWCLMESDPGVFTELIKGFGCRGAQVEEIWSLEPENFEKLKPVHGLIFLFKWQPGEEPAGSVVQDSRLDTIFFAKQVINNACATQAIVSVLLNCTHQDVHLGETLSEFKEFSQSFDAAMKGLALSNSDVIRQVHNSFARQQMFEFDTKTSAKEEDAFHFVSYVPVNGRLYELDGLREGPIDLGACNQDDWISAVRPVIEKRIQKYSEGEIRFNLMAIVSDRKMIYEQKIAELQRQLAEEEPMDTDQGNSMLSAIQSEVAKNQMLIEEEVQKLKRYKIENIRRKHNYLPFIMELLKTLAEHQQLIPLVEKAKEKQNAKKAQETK
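Test system – human UCH37 enzyme supplied as purified proteasome complex · Incubation – 30 min preincubation with enzyme, 25 min cleavage at room temperature · Detection – AMC fluorescence from Ub-AMC cleavage, excitation 355 nm, emission 460 nm · Benchmarks – no-proteasome wells (full inhibition) and compound-free wells (no inhibition)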
A1 inh: inhibitors of the anti-apoptotic protein A1, read as caspase activation; caspase activation, % (concentration not given with the values); MEF A1-2A-BIM cells, Caspase-Glo 3/7 luminescence, 3 h; percent of clofoctol response, vehicle zero; AID 2462; hit rate 0.066% among 330,000;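 active = over half of replicate activation scores above 10%, or exactly half above 10 with the replicate mean above 10; inconclusive = replicate mean below 10 yet half the replicates above 10; inactive = over half of replicates below 10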;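 note: wells of about 30 µL received 50 nL stock; many hits fall short of the cut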
* hit, by the source's call; u = inconclusive; x = no result given.

SMILES	LANA-H2B inh	Beta2AR agonist	T cruzi repl	Calb FLC	Beta cell apopt	RanGTP-Imp inh	UCH37 DUB inh	A1 inh
COc1ccccc1C(=O)COC(=O)COc1cccc2c1OC(C)(C)C2	1.3	0	-5	-13	-14	-1.2	2.5	0.4
Cc1csc2nc(CCNS(=O)(=O)c3ccc4c(c3)OCCO4)cn12	-3.7	6	-4	-2	6	3.9	0.3	-0.4
O=C(NCCn1ccc2ccccc21)c1ccc2c(c1)OCO2	2.5	4	-1	-1	5	-0.9	0.9	-0.6
Cc1nn(-c2ccccc2)c(N)c1C1(O)C(=O)N(C)c2ccccc21 (configuration not stated)	2.6	-11	-17	-10	-5	0.4	2.3	2.2
Cn1c(=O)cc(OCC(=O)N2CCN(c3cccc(C(F)(F)F)c3)CC2)c2ccccc21	3.1	24	6	8	3	0.3	1.8	-0.1
COc1ccccc1COCC(O)CN1CCN(S(=O)(=O)c2cccc(F)c2)CC1 (configuration not stated)	-6.0	-11	x	x	-5	x	0.2	-0.9
O=C(NNC(=O)C1CC=CCC1)c1cccc(Br)c1 (configuration not stated)	-1.3	-2	x	8	x	11	3.0	0.1
Cn1c(-c2ccc(F)cc2)cnc1NCc1cccc([N+](=O)[O-])c1	-2.5	-7	14	-1	x	0.3	0.7	-0.5
CCOC(=O)C1=C(C)NC(C)=C(C(=O)OCC)C1C(=O)OCC(=O)c1ccc2c(c1)OCCO2	1.2	-1	-9	-27	4	-4.1	-6.1	-1.0
COc1ccc(C(=O)C2CCCN(C(=O)c3cc4nc(C)cc(C)n4n3)C2)cc1F (configuration not stated)	3.4	-3	5	-5	-3	-1.6	-1.2	-0.3
CN=C(Nc1ccccc1)SC1CC(=O)N(c2cccc(OC)c2)C1=O (configuration not stated)	-0.1	0	-3	-5	-3	1.3	2.6	0.1
CC(=O)c1ccc(-n2nncc2C)cc1	-6.8	-2	-16	u	-8	0.1	-0.1	-0.3
c1ccc(-c2cnc(-c3ccccn3)nn2)cc1	0.0	-2	-11	-1	7	1.9	1.0	-5.7
CNC(=O)c1ccccc1S(=O)c1ccccc1COC(C)=O (configuration not stated)	3.2	-5	-6	-9	1	2.2	1.5	0.4
CCS(=O)(=O)NCCc1cc2c(OC)ccc(OC)c2[nH]c1=O	-11	10	-4	-6	-5	4.0	-1.8	-0.9
CC(=O)Nc1ccc(OS(=O)(=O)c2cc(Cl)ccc2C)cc1	0.5	-18	-6	-10	5	0.2	4.1	-0.1
Cc1ccc(C(=O)CN(C(=O)c2ccc(Cl)cc2)N2C(=O)c3ccccc3C2=O)cc1	-1.2	10	-15	1	-2	-1.8	1.6	0.1
CC(C)(C)c1ccc(C(=O)NCCc2ccccc2)cc1	-3.6	8	6	-10	-4	u	5.8	-1.8
Cc1ccc2cc(CCNC(=O)c3c(-c4ccccc4Cl)noc3C)c(=O)[nH]c2c1	-3.6	-6	15	0	2	-1.9	0.6	0.1
O=c1[nH]c(N/N=C\c2ccc(F)cc2)nc2ccccc12	5.9	-11	-10	-18	7	38*	x	-4.0

In a second layout: 2 of the compounds above.
The line under a structure holds: LANA-H2B inh | Beta2AR agonist | T cruzi repl | Calb FLC | Beta cell apopt | RanGTP-Imp inh | UCH37 DUB inh | A1 inh
CC(=O)c1ccc(-n2nncc2C)cc1
 : -6.8 | -2 | -16 | u | -8 | 0.1 | -0.1 | -0.3
c1ccc(-c2cnc(-c3ccccn3)nn2)cc1
 : 0.0 | -2 | -11 | -1 | 7 | 1.9 | 1.0 | -5.7

The results go on:
SMILES	LANA-H2B inh	Beta2AR agonist	T cruzi repl	Calb FLC	Beta cell apopt	RanGTP-Imp inh	UCH37 DUB inh	A1 inh
Cc1nc2c(S(=O)(=O)c3ccccc3)cnn2c(C)c1C	x	-2	3	-3	2	1.0	-19	1.5
O=C(CCCn1c(SCC(=O)c2ccc(O)c(O)c2)nc2ccccc2c1=O)NCC1CCCO1 (configuration not stated)	3.5	-4	-20	-22	3	x	7.9	0.2
Cc1nc(NC(=O)c2cccnc2)ccc1Br	-5.5	-6	-2	-6	5	u	-0.6	-1.4
COc1ccc(S(=O)(=O)NCC2CCCN(C(=O)CCC(F)(F)F)C2)cc1 (configuration not stated)	-1.5	-9	2	5	x	1.2	0.9	0.6
COc1cc(OC)cc(C(=O)OCn2nnc3ccccc3c2=O)c1	-1.6	13	-9	-8	-7	4.3	3.6	1.3
CS(=O)(=O)c1ccccc1C(=O)N1CCN(Cc2ccccc2)CC1	-5.9	8	-6	-1	x	2.0	0.9	0.0
COc1ccc2c(c1)c1ncn(CCCN3CCOCC3)c(=O)c1n2C	-4.7	6	24	10	-4	u	-423	-0.2
CCc1ccccc1NC(=O)C1CCCN1S(=O)(=O)c1ccc2c(c1)n(C)c(=O)c(=O)n2C (configuration not stated)	-2.9	-4	1	2	-1	0.9	-5.0	1.2
Cc1cccc(OCc2n[nH]c(=S)o2)c1C	5.3	-1	-10	3	-5	1.1	-3.4	0.7
CCOc1ccc(N2CC(C(=O)OCC(=O)NCc3ccccc3)CC2=O)cc1 (configuration not stated)	0.8	-1	6	0	-2	1.4	4.1	-0.4
CCCNC(=O)N1CCC(c2nc3ccccc3s2)CC1	-4.5	-1	-6	7	0	-5.4	2.0	0.3
Cc1ccsc1/C=N/NC(=O)C(O)c1ccccc1 (configuration not stated)	1.5	0	-9	23	x	-1.6	x	-0.4
Cc1ccc(S(=O)(=O)N(Cc2ccc(C(F)(F)F)cc2)C(=O)N2CCN(C)CC2)cc1	3.3	-2	-16	-3	x	4.0	5.6	2.0
CC(C)c1ccc(NC(=O)COc2nnc(-c3cccs3)c(-c3cccs3)n2)cc1	-0.4	-8	11	-5	5	1.7	3.2	0.6
CC(NC(=O)c1ccc(N2CCCC2=O)cc1)c1ccccc1 (configuration not stated)	-1.1	-1	0	13	-2	u	5.1	0.0
O=CN1CCC(=O)N(Cc2ccccc2)c2ccccc21	1.4	-5	-37	15	-5	0.0	0.4	0.0
CNS(=O)(=O)c1cccc(C(=O)NC2CCCc3ccccc32)c1 (configuration not stated)	-3.7	0	x	-11	1	-0.3	3.9	0.3
O=C(O)C(NS(=O)(=O)c1ccccc1)C(O)c1ccccc1 (configuration not stated)	4.1	-8	-8	2	4	-1.0	x	-0.2
CCN(CC)S(=O)(=O)c1ccc(OC)c(NC(=S)Nc2cccc(C)c2C)c1	0.1	10	-2	-6	-15	-0.5	0.8	-0.8
COC(=O)C1=C(C)n2cnnc2NC1c1ccc(Cl)cc1 (configuration not stated)	6.9	-4	-1	2	-3	1.1	0.7	0.9
CCOc1ccccc1NC(=O)CCC(=O)Nc1ccccc1OCC	1.1	-3	-5	-2	1	u	-1.9	1.2
Cc1ccc(NC(=S)N2CCN(c3ccccc3F)CC2)c(C)c1	-1.0	-4	-8	-2	0	u	6.2	-0.2
CCCC(C)(C)NC(=O)CCCCC(=O)NC(C)(C)CCC	-9.5	6	-7	-9	0	0.0	0.6	-0.5
Cc1cccc(N(Cc2cc3ccccc3[nH]c2=O)C(=O)c2cccs2)c1	0.3	-8	6	8	-1	-1.4	0.1	1.3
Oc1c(Cl)cc(CN2CCOCC2)c2cccnc12	4.1	5	x	x	29	x	2.4	0.6
CC(C)OC(=O)c1cc(NC(=S)Nc2ccc([N+](=O)[O-])cc2)cc(C(=O)OC(C)C)c1	11	9	5	1	-6	0.8	1.3	0.2
O=C(NC(=S)Nc1ccc(Cc2ccncc2)cc1)c1ccccc1	5.3	-13	35	1	-4	-2.1	6.7	-0.5
C=CCN1c2ccccc2[C@]23C[C@@H](C(=O)OC)N=C2NC(C(=O)OC)=C(C(=O)OC)[C@H]13	9.3	-2	-3	5	2	-1.7	x	1.2
CCCS(=O)(=O)N1CCN(Cc2ccc3c(c2)c2ccccc2n3CC)CC1	2.6	7	u	41	-3	0.8	-1.6	u
Cc1nnc(NC(=O)CC(C)c2ccccc2)s1 (configuration not stated)	0.8	2	-12	-1	-5	4.5	4.7	1.4
COc1cccc(C(=O)N2CCn3c2nc2ccccc23)c1	-5.8	-6	-5	-2	-1	-3.6	0.8	-0.8
CCc1nc2c(C#N)c(-c3ccc(Cl)cc3)ccn2n1	2.6	-3	-30	1	-6	-1.9	6.3	0.1
Cc1ccc2c(CC(=O)NC3CCS(=O)(=O)C3)coc2c1C (configuration not stated)	-5.8	1	-17	20	-2	-1.9	4.3	0.2
CCCc1nc2oc3ccccc3c(=O)c2c(=O)n1-c1ccccc1	-0.6	-9	0	64	-3	-1.2	3.2	0.3
CCOC(=O)CNC(=O)CSc1nnc(Cn2cnc3ccccc32)n1C	0.7	2	-7	u	-11	2.2	2.8	2.9
COc1ccc(C(=O)NC(C)c2nnc(SCC(=O)Nc3nc4ccccc4s3)n2C)cc1 (configuration not stated)	0.6	-11	8	7	-5	u	-4.3	-0.1
COc1ccc(C(=O)Nc2ccc3ccccc3c2)c(OC)c1	2.0	-2	3	38	1	2.3	1.3	-12
O=C(c1sc2ccccc2c1Cl)N1CCN(c2ccc(F)cc2)CC1	0.9	-10	-17	3	-7	4.4	1.8	-0.6
CCOP(=O)(OCC)C(NC(=O)Nc1ccccc1)c1ccccc1 (configuration not stated)	1.5	2	2	6	x	1.4	3.8	0.7
CCNC(=S)/N=C(/Nc1ccccc1)Nc1nc(C)cc(C)n1	11	-103	28	-5	x	u	x	-0.7
COc1ccc(NC(=O)CSc2nc(N)c(C#N)cc2C#N)cc1	3.7	6	-23	-12	-2	-3.9	1.5	-0.4
CCCN(CC1CC1)C(=S)NC(=O)c1ccc(S(=O)(=O)N2CCOCC2)cc1	-1.5	-1	-3	20	15	-3.4	3.6	-0.4
CCCSc1nc(-c2ccccc2)cc(C(F)(F)F)c1C#N	-4.0	2	10	8	11	1.1	-5.3	1.3
CC(C)C(c1nnnn1Cc1ccc(F)cc1)N1CCSCC1 (configuration not stated)	5.9	3	-6	-2	-8	-4.5	-0.6	1.0
CCOC(=O)CSc1nnc(-c2ccc(Cl)cc2Cl)o1	-1.0	0	-1	0	-9	-2.0	5.4	-1.6
COc1ccc(NC(=O)c2ccco2)cc1S(=O)(=O)N1CCCCC1	-4.0	-17	5	6	-1	3.0	2.5	0.2
Cc1cccc(NC(=O)CCN2CCN(C/C=C/c3ccccc3)CC2)c1	-0.8	1	41	2	3	1.3	1.4	-0.2
CC(Oc1cccc(Br)c1)C(=O)NNC(=O)CCNC(=O)c1ccccc1Cl (configuration not stated)	5.6	2	x	x	1	x	0.9	0.1
COc1ccc(CCNC(=O)CSc2c[nH]c3ccccc23)cc1OC	1.0	-4	0	0	-3	0.2	4.5	1.0
O=C(NCc1cccs1)c1cnc2sccn2c1=O	-0.7	12	10	5	-5	2.6	3.5	1.2
CCOc1ccc(NC(=O)CN(c2ccc([N+](=O)[O-])cc2)S(=O)(=O)c2ccccc2)cc1	0.8	15	44	3	5	4.1	2.8	-0.4
CC(=O)c1c(C)[nH]c(C(=O)CSc2ncnc3sc(-c4ccccc4)cc23)c1C	-4.9	-4	-38	5	x	-1.6	-24	0.3
